Source: PubChem (Broad Institute)
PD-1 reverse act: reversal of PD-1 mediated T-cell inhibition. primary human CD4 T cells, PD-L1 beads, CellTiter-Glo 96 h. activation, % (concentration not given with the values). 29,000 tested, under 10 active. AID 2316;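 active means replicate mean of 50% or more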;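 further: 0% = median vehicle wells and 100% = positive control; 100 nL library stock added to about 50 µL; numbers are from one replicate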
YB-1 expr inh: YB-1 expression inhibition; U2OS, qRT-PCR YB-1 vs CDIP delta delta Cp, 16 h; stronger effect = higher value; zero = DMSO, each unit about twofold; delta delta Cp (YB-1 minus CDIP) (no concentration beside the values); 30,000 compounds, 0.37% hits;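 active means delta delta Cp rounded down to an integer at or above 3, about 3 SD of DMSO wells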;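 further: higher means less YB-1 transcript or more CDIP transcript relative to DMSO; stock transfer was 100 nL into about 100 µL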
Hedgehog inh: blocks Sonic Hedgehog signaling | Shh-LIGHT2 Gli-luciferase reporter, 30 h | inhibition, % (no concentration beside the values) | 22,000 compounds, 2.1% hits;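 active means replicate mean of 65% or more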;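 further: pathway switched on by Shh-conditioned medium diluted 1 in 25 in low serum; 100 nL library stock added to about 40 µL; 0% = median of neutral wells and 100% = positive control level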
MITF inh: MITF inhibition; TRPM1 promoter luciferase, luminescence, 24 h; inhibition, % (concentration not given with the values); 37,000 compounds, 0.28% hits; AID 2240;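 active means most replicates at 85% or more, or half of them and the mean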;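 further: human melanocyte line stably carrying TRPM1 promoter luciferase reporter; 0% = vehicle wells and 100% = a positive control; the first replicate is given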
* marks the source's active call; other numbers are inactive results; nt = not tested or not shown. An excerpt, so the mix of outcomes need not match the whole.

| smiles | PD-1 reverse act | YB-1 expr inh | Hedgehog inh | MITF inh |
| --- | --- | --- | --- | --- |
| C[C@H]1CN([C@@H](C)CO)C(=O)Cc2cc(N(C)C)ccc2O[C@H]1CN(C)CC1CC1 | 0.8 | 0.39 | 6 | -8 |
| O=C(c1ccc(Br)cc1)N1Cc2ccccc2NC1=S | 0.0 | -0.39 | 5 | -6 |
| Cc1noc(C)c1NC(=O)Nc1ccc2c(c1)CC(=O)N([C@H](C)CO)C[C@H](C)[C@H](CN(C)S(=O)(=O)c1cn(C)cn1)O2 | 1.5 | 0.27 | -25 | 0 |
| C[C@@H]1CN([C@@H](C)CO)C(=O)c2cccc(NC(=O)Nc3ccccc3)c2O[C@H]1CN(C)C | -1.3 | 0.3 | 13 | -14 |
| COc1ccc(S(=O)(=O)N(C)C[C@H]2OCCCC[C@@H](C)Oc3ccc(NS(=O)(=O)c4ccc(C)cc4)cc3C(=O)N([C@H](C)CO)C[C@@H]2C)cc1 | nt | -0.23 | 3 | 21 |
| C[C@@H]1CN([C@H](C)CO)C(=O)Cc2cc(NS(C)(=O)=O)ccc2O[C@@H]1CN(C)S(=O)(=O)c1ccccc1 | -0.3 | 0.21 | 0 | -1 |
| C[C@@H]1CN([C@@H](C)CO)C(=O)Cc2cc(NS(=O)(=O)c3ccc(F)cc3)ccc2O[C@@H]1CN(C)Cc1ccc(-c2ccccc2)cc1 | nt | 0.21 | -8 | 23 |
| C[C@H]1CN([C@@H](C)CO)C(=O)c2cc(NC(=O)Nc3ccc(C(F)(F)F)cc3)ccc2O[C@H]1CN(C)S(=O)(=O)c1ccccc1 | -1.1 | -0.02 | nt | 17 |
| COc1ccc(NC(=O)Nc2ccc3c(c2)C(=O)N([C@@H](C)CO)C[C@H](C)[C@H](CN(C)S(=O)(=O)c2ccc(Cl)cc2)O3)cc1 | 1.4 | 0.26 | nt | 4 |
| C[C@H]1CN([C@@H](C)CO)C(=O)c2cccc(NC(=O)C3CCOCC3)c2O[C@@H]1CN(C)Cc1ccc(C(=O)O)cc1 | nt | -0.11 | -106 | -8 |
| C[C@@H]1CCCCO[C@@H](CN(C)C(=O)Nc2ccc(C(F)(F)F)cc2)[C@@H](C)CN([C@H](C)CO)C(=O)c2cc(NS(=O)(=O)c3ccc(F)cc3)ccc2O1 | -8.0 | 0.48 | 98* | 40 |
| C[C@@H]1CN([C@H](C)CO)C(=O)Cc2cc(NC(=O)Cc3ccccc3)ccc2O[C@@H]1CN(C)S(C)(=O)=O | nt | 0.089 | nt | -4 |
| Cc1noc(C)c1S(=O)(=O)Nc1ccc2c(c1)C(=O)N([C@H](C)CO)C[C@@H](C)[C@@H](CN(C)Cc1ccncc1)O2 | 0.5 | 0.23 | -18 | -8 |
| Cc1ccc(S(=O)(=O)Nc2cccc3c2O[C@H](CN(C)C(=O)Nc2ccc4c(c2)OCO4)[C@@H](C)CN([C@H](C)CO)C3=O)cc1 | 1.3 | -0.052 | -39 | -1 |
| C[C@@H]1CN([C@H](C)CO)C(=O)c2cccc(NS(=O)(=O)c3ccc(F)cc3)c2O[C@@H]1CN(C)C(=O)NC1CCCCC1 | 0.1 | -0.35 | 43 | 3 |
| C[C@@H]1CN([C@H](C)CO)C(=O)c2cccc(NC(=O)C3CCCCC3)c2O[C@H]1CN(C)Cc1ccc(C(=O)O)cc1 | -2.2 | 0.21 | 42 | 1 |
| Cn1c(C(C#N)C(=O)c2ccccc2I)nc2ccccc21 (stereo not given) | -3.2 | -0.89 | -49 | 11 |
| COc1cc2c(cc1NC(=O)C(C)Oc1cccc(Cl)c1)oc1ccccc12 (stereo not given) | -0.8 | nt | nt | 15 |
| COc1ccc(S(=O)(=O)Nc2ccc3c(c2)CC(=O)N([C@H](C)CO)C[C@H](C)[C@H](CN(C)Cc2ccc4c(c2)OCO4)O3)cc1 | 2.1 | 0.59 | 5 | -10 |
| C[C@H](CO)N1C[C@H](C)[C@H](CN(C)C)Oc2ccc(NC(=O)CCN3CCOCC3)cc2CC1=O | nt | -0.54 | -10 | 0 |
| C[C@@H]1CN([C@@H](C)CO)C(=O)c2cccc(NS(=O)(=O)c3cn(C)cn3)c2O[C@H]1CN(C)C(=O)Nc1ccc(F)cc1 | 1.2 | -0.099 | -79 | -8 |
| Cc1noc(C)c1NC(=O)Nc1ccc2c(c1)C(=O)N([C@@H](C)CO)C[C@@H](C)[C@@H](CN(C)C(=O)Nc1ccc(C(F)(F)F)cc1)O2 | -0.2 | 0.04 | 35 | 4 |
| Cc1ccc(S(=O)(=O)N(C)C[C@@H]2Oc3c(NC(=O)c4cc(C)nn4C)cccc3C(=O)N([C@H](C)CO)C[C@H]2C)cc1 | nt | 0.13 | 12 | -5 |
| COc1ccc(C2Nn3c(C)nnc3SC2C(=O)NCc2ccco2)cc1Cl (stereo not given) | 0.8 | 0.057 | -21 | -4 |
| Cc1ccccc1NC1=C(C(=O)c2ccccc2)N(C)S(=O)(=O)c2ccccc21 | -2.2 | 0.47 | -13 | -8 |
| CCOC(=O)c1c(NC(=O)c2nc3ncccn3n2)sc(C)c1C | -2.1 | nt | nt | -61 |
| Cc1ccc(NC(=O)CC2NCCNC2=O)cc1Cl (stereo not given) | 1.9 | nt | nt | -2 |
| Cc1noc(C)c1NC(=O)N(C)C[C@H]1Oc2c(NC(=O)C3CC3)cccc2C(=O)N([C@@H](C)CO)C[C@@H]1C | 0.3 | -0.14 | 4 | -6 |
| C[C@H](CO)N1C[C@H](C)[C@H](CN(C)S(=O)(=O)c2ccc(F)cc2)Oc2ccc(NC(=O)Cc3ccccc3)cc2CC1=O | nt | -0.65 | 29 | 5 |
| Cc1noc(C)c1S(=O)(=O)Nc1cccc2c1O[C@H](CN(C)S(=O)(=O)c1cccs1)[C@H](C)CN([C@H](C)CO)C2=O | -0.2 | -0.15 | -42 | -4 |
| C[C@@H]1CN([C@@H](C)CO)C(=O)c2cc(NC(=O)Nc3ccccc3)ccc2O[C@@H]1CN(C)S(C)(=O)=O | nt | 0.19 | -4 | -5 |
| COc1ccc(OC)c(S(=O)(=O)Nc2cccnc2)c1 | 1.0 | nt | nt | -5 |
| Cc1cc2c(c(=O)n1CCCn1ccnc1)C(c1ccccc1)C(C#N)=C(N)O2 (stereo not given) | 0.3 | -0.44 | nt | 0 |
| Cc1cc(O)cc(Oc2cc(C)cc(O)c2O)c1 | -0.6 | 0.11 | 10 | 11 |
| CC(C)NC(=O)N(C)C[C@@H]1Oc2ccc(NS(=O)(=O)c3ccc(F)cc3)cc2C(=O)N([C@@H](C)CO)C[C@@H]1C | 1.2 | 0.23 | -35 | 0 |
| C[C@@H]1CN([C@H](C)CO)C(=O)Cc2cc(NS(C)(=O)=O)ccc2O[C@H]1CN(C)Cc1ccc2c(c1)OCO2 | 0.1 | 0.37 | 1 | -3 |
| COc1ccc(NC(=O)Nc2ccc3c(c2)CC(=O)N([C@@H](C)CO)C[C@H](C)[C@@H](CN(C)Cc2ccncc2)O3)cc1 | nt | 0.26 | -2 | -7 |
| COC(=O)c1cc(OC)c(OC)cc1NC(=O)COc1ccccc1 | -2.5 | nt | nt | -5 |
| C[C@@H]1CN([C@@H](C)CO)C(=O)c2cc(NC(=O)CCCCCC(=O)Nc3ccccc3N)ccc2O[C@H]1CN(C)C(=O)NC1CCCCC1 | 1.0 | -0.11 | nt | -3 |
| COc1ccc(NC(=O)Nc2ccc3c(c2)CC(=O)N([C@H](C)CO)C[C@@H](C)[C@H](CN(C)C(=O)Nc2c(C)noc2C)O3)cc1 | 1.4 | -0.32 | 23 | -14 |
| COc1ccc(Cc2nnc(SCc3nc4ccccc4c(=O)[nH]3)o2)cc1 | 2.5 | nt | nt | 4 |
| COc1ccc(S(=O)(=O)Nc2ccc3c(c2)C(=O)N([C@@H](C)CO)C[C@H](C)[C@@H](CN(C)Cc2ccc(Cl)c(Cl)c2)O3)cc1 | -0.3 | -0.28 | -6 | -4 |
| O=C(Nc1ccccc1C(=O)NCCN1CCOCC1)c1ccco1 | 1.6 | nt | nt | -9 |
| COc1ccc(S(=O)(=O)Nc2cccc3c2O[C@@H](CN(C)C(=O)Nc2ccc(C(F)(F)F)cc2)[C@H](C)CN([C@H](C)CO)C3=O)cc1 | 3.2 | -0.57 | -11 | -1 |
| Cc1noc(C)c1S(=O)(=O)N(C)C[C@H]1Oc2c(NC(=O)c3cnccn3)cccc2C(=O)N([C@H](C)CO)C[C@H]1C | nt | -0.15 | -2 | -24 |

Single records, as listed above. Order of values: PD-1 reverse act, YB-1 expr inh, Hedgehog inh, MITF inh
CC(C)NC(=O)N(C)C[C@@H]1Oc2ccc(NS(=O)(=O)c3ccc(F)cc3)cc2C(=O)N([C@@H](C)CO)C[C@@H]1C is listed with 1.2, 0.23, -35, 0
C[C@@H]1CN([C@@H](C)CO)C(=O)c2cc(NC(=O)CCCCCC(=O)Nc3ccccc3N)ccc2O[C@H]1CN(C)C(=O)NC1CCCCC1 is listed with 1.0, -0.11, nt, -3
COc1ccc(NC(=O)Nc2ccc3c(c2)CC(=O)N([C@@H](C)CO)C[C@H](C)[C@@H](CN(C)Cc2ccncc2)O3)cc1 is listed with nt, 0.26, -2, -7

More entries:
| smiles | PD-1 reverse act | YB-1 expr inh | Hedgehog inh | MITF inh |
| --- | --- | --- | --- | --- |
| COC(=O)c1sc(SC)c(-c2ccn(S(=O)(=O)c3ccc(Cl)cc3)n2)c1C | 1.6 | 0.4 | 15 | 7 |
| COc1ccc(S(=O)(=O)N(C)C[C@@H]2Oc3c(NC(=O)c4cnccn4)cccc3C(=O)N([C@@H](C)CO)C[C@@H]2C)cc1 | nt | -0.2 | 11 | -15 |
| COc1ccc(S(=O)(=O)N(C)C[C@@H]2Oc3ccc(NC(=O)C4CCCCC4)cc3C(=O)N([C@H](C)CO)C[C@H]2C)cc1 | -0.6 | 0.16 | nt | 1 |
| CSc1c(CC(=O)NN)n(C)c2ccccc12 | 0.4 | 0.19 | -27 | 11 |
| C[C@@H]1CN([C@@H](C)CO)C(=O)c2cccc(NC(=O)NC3CCCCC3)c2O[C@@H]1CN(C)C(=O)Nc1ccc(C(F)(F)F)cc1 | -5.4 | 0.053 | -7 | 10 |
| C[C@@H]1CCCCO[C@@H](CN(C)Cc2ccccc2)[C@@H](C)CN([C@H](C)CO)C(=O)c2cc(NC(=O)CCCN(C)C)ccc2O1 | nt | -0.12 | -3 | 5 |
| COc1cccc(NC(=O)C(C)NS(=O)(=O)c2ccc(Cl)cc2)c1 (stereo not given) | 1.1 | nt | nt | 4 |
| C[C@@H]1CCCCO[C@H](CN(C)C(=O)NC2CCCCC2)[C@@H](C)CN([C@H](C)CO)C(=O)c2cc(NC(=O)Nc3ccc(C(F)(F)F)cc3)ccc2O1 | nt | -0.36 | 31 | -10 |
| Cc1noc(C)c1S(=O)(=O)Nc1ccc2c(c1)CC(=O)N([C@@H](C)CO)C[C@H](C)[C@@H](CN(C)C(=O)Nc1ccc3c(c1)OCO3)O2 | 0.7 | -0.029 | -8 | 4 |
| CC1=C(CCC2=CC(=O)OC2O)[C@@]2(C)CCC[C@]3(C)C(=O)OC(C1=O)[C@@H]32 (stereo not given in full) | -1.2 | 0.56 | -3 | 7 |
| C[C@H]1CN([C@@H](C)CO)C(=O)c2cc(NC(=O)CCN3CCOCC3)ccc2O[C@H]1CN(C)S(C)(=O)=O | 0.9 | -0.1 | nt | 7 |
| CN(C)CC/C=C1\c2ccccc2CSc2ccccc21 | nt | 0.089 | 42 | 4 |
| CC(C)NC(=O)N(C)C[C@@H]1Oc2c(NS(=O)(=O)c3ccccc3)cccc2C(=O)N([C@@H](C)CO)C[C@@H]1C | nt | -0.045 | -3 | 12 |
| Cc1ccc(C)c(NC(=O)Cn2cc(C(=O)C3CC3)c3ccccc32)c1 | -1.9 | nt | nt | 18 |
| O=S(=O)(c1ccccc1)c1nc(-c2ccccc2Cl)oc1NCCN1CCOCC1 | -4.3 | nt | nt | -3 |
| CNC[C@@H]1Oc2ccc(NC(=O)Nc3ccc(OC)cc3)cc2C(=O)N([C@H](C)CO)C[C@H]1C | 0.3 | 0.2 | -13 | -2 |
| COC(=O)C1=CO[C@@H](O[C@@H]2O[C@H](CO)[C@@H](O)[C@H](O)[C@H]2O)[C@@H]2[C@@](C)(O)[C@@H](OC(=O)/C=C/c3ccc(OC)c(OC)c3)C[C@]12O | -1.0 | 0.11 | 4 | -28 |
| C[C@@H]1CN([C@@H](C)CO)C(=O)c2cc(NC(=O)CCN3CCOCC3)ccc2O[C@H]1CN(C)C(=O)Nc1ccc2c(c1)OCO2 | 0.3 | 0.22 | -27 | -4 |
| C[C@H]1CN([C@@H](C)CO)C(=O)c2cc(NS(=O)(=O)c3ccc(Cl)cc3)ccc2O[C@@H]1CN(C)S(C)(=O)=O | nt | -0.13 | nt | 0 |
| C[C@@H]1CCCCO[C@H](CN(C)C)[C@@H](C)CN([C@H](C)CO)C(=O)c2cc(NC(=O)CCCN(C)C)ccc2O1 | 0.8 | 0.2 | -40 | -18 |
| C[C@H](CO)N1C[C@H](C)[C@H](CN(C)Cc2ccncc2)Oc2ccc(NC(=O)CCN3CCOCC3)cc2CC1=O | nt | -0.21 | -10 | -18 |
| Cc1noc(C)c1S(=O)(=O)Nc1cccc2c1O[C@H](CN(C)Cc1ccc(Oc3ccccc3)cc1)[C@H](C)CN([C@@H](C)CO)C2=O | -2.8 | -0.099 | 27 | 10 |
| C[C@@H]1CCCCO[C@H](CN(C)Cc2ccc(C(F)(F)F)cc2)[C@@H](C)CN([C@H](C)CO)C(=O)c2cc(N(C)C)ccc2O1 | nt | 0.2 | 16 | -35 |
